# VDR inh: Inhibitors of the vitamin D receptor (VDR): qHTS; Vitamin D3 receptor (Homo sapiens), P11473; VDR-SRC2-3 peptide fluorescence polarization, 2 h; Potency, µM, inactives show max response, negative = inhibition, most hits filed as inhibitors; hit rate 0.93% among 400,000; AID 504847, 2011; active = well fitted inhibition curve with a large enough effect; inconclusive = small, poorly fitted or top-dose-only effect, or another doubt; inactive = no such curve, though single readings can be large or run the other way; note: series mostly up to about 120 µM
# Target sequence (P11473 whole entry, looked up): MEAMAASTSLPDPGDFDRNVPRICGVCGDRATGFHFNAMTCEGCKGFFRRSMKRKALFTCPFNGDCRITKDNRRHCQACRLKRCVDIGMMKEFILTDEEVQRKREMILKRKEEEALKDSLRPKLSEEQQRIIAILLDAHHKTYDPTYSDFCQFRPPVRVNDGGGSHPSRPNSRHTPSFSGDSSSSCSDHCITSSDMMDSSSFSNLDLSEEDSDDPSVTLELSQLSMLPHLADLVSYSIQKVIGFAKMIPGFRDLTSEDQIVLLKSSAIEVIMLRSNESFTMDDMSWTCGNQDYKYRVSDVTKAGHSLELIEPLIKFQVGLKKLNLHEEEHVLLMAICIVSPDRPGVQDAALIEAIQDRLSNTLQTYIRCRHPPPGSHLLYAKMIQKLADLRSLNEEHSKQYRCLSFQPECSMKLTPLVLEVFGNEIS
#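 The screen uses fluorescence polarization to detect compounds that interfere with recruitment of the SRC2-3 coactivator peptide to VDR; plates are read after 2 h at room temperature.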
# Starred values were filed as active, the others as inactive; ? = inconclusive; & = joins results of further samples; [ ] = dose if it differs, or a comment. % is set by controls: 0 for no effect and ±100 for the full control effect; potency is the fitted concentration of half-maximal effect.
# The opening 3 entries, ahead of the listing:
SMILES,VDR inh
CCOC(=O)C(Cc1ccccc1)NC(=O)Cn1nnc(-c2ccc(SC)cc2)n1 (stereo not given),20.6%
COc1cc(/C=C(\C#N)c2nc3ccccc3[nH]2)ccc1OCc1ccccc1F,-16.5%
Oc1ccc(-c2nc3c4c(ncn3n2)-c2ccccc2CC42CCCC2)cc1,-13.6%

# Results, previewed entries included:
SMILES,VDR inh
CCOC(=O)C(Cc1ccccc1)NC(=O)Cn1nnc(-c2ccc(SC)cc2)n1 (stereo not given),20.6%
COc1cc(/C=C(\C#N)c2nc3ccccc3[nH]2)ccc1OCc1ccccc1F,-16.5%
Oc1ccc(-c2nc3c4c(ncn3n2)-c2ccccc2CC42CCCC2)cc1,-13.6%
CCN(CC)c1ccc(NC2=C(Cl)C(=O)c3ccccc3C2=O)cc1,-26.2%
CC(=O)NCC1CCN(C(=O)C2CCC(=O)N(CCc3cccc(F)c3)C2)CC1 (stereo not given),3.7%
O=C1NC(=O)C(CCc2ccccc2)(c2ccccc2)N1 (stereo not given),-2.7%
Cc1nc(SCC(=O)c2cc3ccccc3oc2=O)c(C#N)c(-c2cccs2)c1C(=O)Nc1ccccc1,-16.9%
COCC1CCCCN1C(=O)c1ccc(OC)c(OC2CCN(C(C)C)CC2)c1 (stereo not given),6.9%
Cc1ccc(/C=N/N2CCN(c3ccncc3S(=O)(=O)N3CCCCC3)CC2)cc1,-2.1%
CC(=O)c1cccc(NC(=O)CN2C(=O)NC3(CCCCCCC3)C2=O)c1,-5.2%
COCCOc1ccc(C(F)(F)F)cc1NC(=O)COC(=O)c1cc[n+]([O-])cc1,1.0%
Cc1ccc(-c2cc([C@H]3[C@H]4C=CC[C@@H](C)[C@@H]4C(=O)N3Cc3ccccc3)ccc2F)cc1,32.3%[activator]
COc1cccc(NC(=O)CN(C)C(=O)c2ccc(Cl)c(S(=O)(=O)N3CCCCCC3)c2)c1,-11.2%
O=[N+]([O-])c1ccc(-c2csc(NN=C3CCCC3)n2)cc1,-4.0%
O=S(=O)(c1ccc(Cl)s1)N1CCC2(CC1)OCCO2,-26.5%
CC(C)(C)[C@H]1C=C(C(=O)NCc2nc3ccccc3[nH]2)O[C@@H](OCc2ccc(CO)cc2)C1,-3.7%
Cc1ccc(-n2nc(-c3ccc(OC(F)(F)F)cc3)cc2N)cc1C,3.1%
Cn1ncc(Cl)c1C(=O)Nc1ccc(Cl)cn1,-9.4%
c1ccc2c(c1)c1ccccc1n2CN1CCOCC1,-5.2%
Cn1c(C(=O)NC2CCCCC2)cc2c(=O)n(C)c3ccccc3c21,-7.7%

# Copied from the list:
# COc1cc(/C=C(\C#N)c2nc3ccccc3[nH]2)ccc1OCc1ccccc1F @ VDR inh = -16.5%
# Cn1ncc(Cl)c1C(=O)Nc1ccc(Cl)cn1 @ VDR inh = -9.4%
# CC(=O)c1cccc(NC(=O)CN2C(=O)NC3(CCCCCCC3)C2=O)c1 @ VDR inh = -5.2%
# Oc1ccc(-c2nc3c4c(ncn3n2)-c2ccccc2CC42CCCC2)cc1 @ VDR inh = -13.6%
# O=C1NC(=O)C(CCc2ccccc2)(c2ccccc2)N1 (stereo not given) @ VDR inh = -2.7%
# CC(=O)NCC1CCN(C(=O)C2CCC(=O)N(CCc3cccc(F)c3)C2)CC1 (stereo not given) @ VDR inh = 3.7%

# Going on with the list:
SMILES,VDR inh
COc1ccc(CNC(=O)CN2C(=O)COc3ccc(S(=O)(=O)NC4CCCC4)cc32)cc1,0.9%&6.0%
COC(=O)c1sccc1NC(=O)Nc1ccc(F)cc1F,3.6%
Cc1cccc(NC(=O)NNC(=O)COc2ccc([N+](=O)[O-])cc2)c1C,8.6%
Cc1ccnc(NC(=O)CCNC(=O)c2ccccc2Cl)c1,1.3%
Cc1cc(C)nc(Sc2ccc(/C=C(\C#N)C(N)=O)o2)n1,-6.0%
O=c1sc2ccccc2n1Cc1ccccc1,1.3%
COc1ccc(CN2C(CC(=O)Nc3cccnc3)c3ccc(C(F)(F)F)cc3S2(=O)=O)cc1 (stereo not given),-7.1%
CCN(CC)S(=O)(=O)c1ccc(/C=C/C(=O)OCC(=O)NCc2ccc3c(c2)OCO3)cc1,-2.0%
CC(=O)c1ccc(NC(=O)COC(=O)C2C3CC4OC(=O)C2C4C3)cc1 (stereo not given),-8.5%
Cc1c(C(=O)N2CCOCC2)sc(NC(=O)CCl)c1C#N,-24.3%
COc1ccc(/C=N/NC(=O)c2cc(-c3cccn3C)n[nH]2)cc1OC,-15.5%
CN1CCN(C(=O)c2ccc(Cl)c(S(=O)(=O)N3CCCCC3)c2)CC1,3.1%
Cc1cn(CC(=O)N[C@H](CO)Cc2c[nH]c3ccccc23)c(=O)[nH]c1=O,-1.4%
NC(=O)CC(NC(=O)Cc1cccc2ccccc12)c1ccc(N2CCC(Br)CC2)c([N+](=O)[O-])c1 (stereo not given),-5.9%
CCC12CN3CC(C)(CN(C1)C3c1ccccc1C)C2=O (stereo not given),-6.7%
COc1ccc([N+](=O)[O-])cc1NC(=O)CCC(=O)c1cccs1,15.3%
COc1cccc(OC)c1CNC(=O)C1CCC(=O)N(CC2CCCCC2)C1 (stereo not given),-14.9%
Cc1cccc(NC(=O)CCCN2C(=S)NC(C)(C)CC2C)c1C (stereo not given),8.0%
CC(=NNC(=S)N1CCN(c2ccccn2)CC1)c1nccs1,10.2%
CCOC(=O)C(C)CC(C)C(=O)N1CCOCCOCCN(C(=O)C(C)CC(C)C(=O)OCC)CCOCC1 (stereo not given),-6.7%
N[C@H](C(=O)O)C1C(C(=O)O)C1C(=O)O (stereo not given in full),-2.7%
O=C(CN1C(=O)NC2(CCc3ccccc32)C1=O)c1ccc(Cl)cc1 (stereo not given),-22.3%
COc1cc(C(=O)NCc2nc3cccnc3n2Cc2ccc(C)cc2)cc(OC)c1OC,12.2%
O=C(Oc1ccc(-c2nccc(-c3ccccn3)n2)cc1)c1cccc(C(F)(F)F)c1,-0.1%
CC1=CC(=O)C(C(C)C)=CC1=NC(=O)c1ccc(C)cc1,25.1µM*
Cc1cnc(CNc2ccnc(-c3ccccc3CN(C)C)n2)cn1,?
CCN1C(=O)c2cccc3c(S(=O)(=O)N4CCCC4C(=O)O)ccc1c23 (stereo not given),13.1%
CN1CCN(C(=O)C2=C[C@@H](C3CCCCC3)C[C@@H](OCc3ccc(CO)cc3)O2)CC1,-22.7%
CCOc1ccc(NC(=O)CSc2nc3c(oc4ccccc43)c(=O)n2-c2ccccc2C)cc1,-1.5%
Cn1c(Cc2ccccc2)nnc1SCC(=O)Nc1ccc2c(c1)OCO2,2.2%
Nc1c(Cl)c(Cl)nc(C(=O)OCC(=O)NC2CCCCC2)c1Cl,-1.2%
COc1ccc(CCNC(=S)c2ccccc2)cc1OC,17.0%
CC(O)[C@H]1CNC(=O)C(=O)N1CCc1cccc(F)c1 (stereo not given in full),4.8%
FC(F)(F)c1nnc2ccc(NCn3nnc4ccccc43)nn12,-26.5%
c1ccc(CSc2ncn[nH]2)nc1,-8.2%
C[C@@]12CCC3[C@@](CCC4[C@@]3(C)CCC[C@@]4(C)C(=O)NCc3ccccc3)(CC1=O)C2 (stereo not given in full),-14.3%
Cc1cc(C)c(C)c(S(=O)(=O)N2CCN(CC(=O)Nc3sccc3C#N)CC2)c1C,10.6%
Cn1c(SCC(=O)Nc2ccc(N3CCOCC3)c(Cl)c2)nnc1-c1ccccc1,-5.7%
CC(C)N(C(=NCc1ccccc1)NC(=O)c1ccccc1)C(C)C,?
CCCCC#Cc1ccccc1CC(=O)Nc1ccccc1,-21.2%
CCOc1ccccc1NC(=O)c1cccc2c1C(=O)N(C1CCCCC1)C2,-11.8%&-32.7%
NC(=O)c1ccc(NC(=O)COC(=O)c2ccc(Br)o2)cc1,4.2%
FC(F)(F)Oc1ccc(NC(=S)Nc2ccccc2N2CCOCC2)cc1,-15.9%
O=C(CNc1ccccc1)N/N=C/c1c[nH]c2ccccc12,6.9%
CCc1cccc(CC)c1NC(=O)Cn1c(-c2ccccc2Cl)nc2ccccc21,12.2%
CC1(C)Oc2ccc(C(=O)Nc3ccccc3)cc2N(CC#N)C1=O,11.0%
CCCCC(CC(O)COCCC)C(=O)NN (stereo not given),9.8%
CC(=O)N1CCN(C(=O)c2cccc(S(=O)(=O)N3CCN(c4ccccc4)CC3)c2)CC1,4.5%
O=C(Cc1ccc(F)cc1)Oc1ccc(C(=S)N2CCCC2)cc1,-4.8%
O=C(CSc1nnnn1-c1ccc(Cl)cc1)NC1CCS(=O)(=O)C1 (stereo not given),-13.7%
COc1ccccc1C(=O)N1CCC(c2noc(-c3ccc(S(=O)(=O)N4CCCC4)cc3)n2)CC1,15.6%
Cc1ccc(S(=O)(=O)N/N=C/c2ccc(OCC(=O)NC(C)C)cc2)cc1,-2.8%
COc1ccc(-c2cc(-c3ccc(F)cc3)nc3c2COc2ccc(F)cc2-3)cc1,-2.4%
CCCCc1cc(=O)oc2c(C)c(OCC(=O)NCCN3CCOCC3)ccc12,-5.5%
Cc1ccc2nc3c(c(N)c2c1)CCN3c1ccccc1,10.3%
COc1ccc(/C=C/C(=O)NC(=S)NNC(=O)c2cc(OC)c(OC)c(OC)c2)cc1OC,0.7%
CC1CC(=O)Nc2ccccc2N1 (stereo not given),20.8%
CCN(CC)c1ccc(N2C(=O)/C(=C/c3cccnc3)SC2=S)cc1,-9.6%
CC(C)N1CCN(Cc2cccs2)CC1CCO (stereo not given),?
COc1ccc(C(C)C)cc1S(=O)(=O)NC1CCCC1,-14.7%
# (next part)
SMILES,VDR inh
CCSc1nc2sc3c(c2c(=O)n1C1CCCCC1)CCN(C)C3,-4.6%
CCOC(=O)c1sc2cc([N+](=O)[O-])cc(SCCO)c2c1N,-26.9%
COc1ccc(-n2c(Cc3cccn3C)nnc2SCC(=O)NCc2ccc(F)cc2)cc1,-6.1%
Cc1ccc(NC(=O)c2ccccc2)cc1OC(=O)c1ccccc1,5.8%
Oc1[nH]c(=S)sc1/C=C1\C(c2ccccc2)=Nc2ccccc21,-18.3%
CCOc1ccccc1N(CC(=O)Nc1ccc(S(=O)(=O)N2CCOCC2)cc1)S(C)(=O)=O,-7.8%
CCN1C(=O)[C@H]2[C@@H](c3ccc(C)cc3)N3C(=O)N(c4ccc(C)cc4)C(=O)[C@@]3(Cc3ccc(Cl)cc3)[C@H]2C1=O,-6.6%
CCCCCCN=C(C)c1ccccc1O,5.7%
O=C(CCC1CCCN(C(=O)c2cncs2)C1)NCc1ccc(F)c(F)c1 (stereo not given),?
O=C(NCCc1ccccc1)c1ccc2c(c1)N(Cc1ccc(F)cc1)C(=O)c1ccccc1S2(=O)=O,5.9%
COc1ccc(Oc2ncc3nc(CCc4ccccc4)c(=O)n(C)c3n2)cc1,-1.3%
Nc1c2c(nc3cccc(Cl)c13)N(c1ccccc1)CC2,-4.7%
CCOC(=O)c1ccc(NC(=O)C2(c3ccccc3)CCOCC2)cc1,13.5%
CCOC(=O)c1nn(-c2ccccc2F)c2nc(-c3ccco3)c(C#N)c(=O)n12,17.5%
Clc1ncccc1-c1nnn(-c2ccccc2Br)n1,?
O=C(c1cccs1)N1CCCc2cc(NS(=O)(=O)c3ccc(Br)cc3)ccc21,3.6%
CCc1ccc(C2CC(=O)N3CN(c4ccccc4)CSC3=C2C#N)cc1 (stereo not given),15.8µM*
O=C(/C(=N\O)n1cncn1)c1ccc(Cl)cc1Cl,10.5%
COC(=O)c1cc(Cl)c(NC(=O)c2ccc(C(C)(C)C)cc2)cc1OC,-7.5%
CCOc1ccc(CCNC(=O)CN2C(=O)c3cccnc3Oc3ccc(Cl)cc32)cc1,4.4%&4.2%
Cc1ccc(N2C(=O)CC(NNC(=O)Cc3ccc(F)cc3)C2=O)cc1Cl (stereo not given),-3.8%
O=C(Nc1cccc(Cl)c1)C1CC1c1ccccc1 (stereo not given),-10.2%
CN(C)CCC#CC(O)(c1ccccc1)c1ccccc1,-21.2%
COC(=O)c1cccc(Cn2c(Cl)c(/C=N/NC(=O)c3ccccc3Cl)sc2=O)c1,-6.6%
CN(c1ccccc1)S(=O)(=O)c1ccc(C(=O)Nc2nccs2)cc1,11.3%
CC1Oc2ccccc2N(CC(=O)NCC2CCCO2)C1=O (stereo not given),-18.5%
CN1CCN(c2ncc3c(n2)CCN(Cc2ccc(Br)s2)C3)CC1,1.6%
C/C(=N\NC(=O)C(N)=O)c1ccc2c(c1)OCCO2,3.5%
CCCCN1CNC(=S)N(CCc2ccccc2)C1,3.9%
Cc1ccc(C(=O)N/C(=C\c2ccc(Cl)cc2)C(=O)NCCN2CCOCC2)cc1,-9.1%
O=C(CSCCO)Nc1ccc(C2CCCCC2)cc1,-3.2%
Cc1noc(C)c1C(=O)N1CCC[C@@]2(CCN(Cc3nccs3)C2)C1,-5.4%
COc1ccc(S(=O)(=O)NCc2cccn2Cc2cccc(C)c2)cc1,-9.3%
CCOP(=O)(O)c1ccccc1OCCCCCOc1ccccc1P(=O)(O)OCC,1.8%
O=C(OCc1nc2ccccc2s1)C1CCN(S(=O)(=O)c2cccs2)CC1,3.0%
COc1ccc(C(CNC(=O)c2nn(-c3ccccc3)c(=O)c3ccccc23)N2CCOCC2)cc1 (stereo not given),5.5%
Cc1cc(Br)c(Oc2cc(NN3CCCCC3)c([N+](=O)[O-])cc2[N+](=O)[O-])c(Br)c1,-17.1%
O=C(COC(=O)c1cc(Cl)nc2ccccc12)c1ccc(Cl)cc1,18.1%

# Sorted by molecular weight (highest first): 6 of the compounds above
SMILES,VDR inh
Cc1nc(SCC(=O)c2cc3ccccc3oc2=O)c(C#N)c(-c2cccs2)c1C(=O)Nc1ccccc1,-16.9%
O=C(Oc1ccc(-c2nccc(-c3ccccn3)n2)cc1)c1cccc(C(F)(F)F)c1,-0.1%
CN1CCN(C(=O)c2ccc(Cl)c(S(=O)(=O)N3CCCCC3)c2)CC1,3.1%
Cn1c(Cc2ccccc2)nnc1SCC(=O)Nc1ccc2c(c1)OCO2,2.2%
O=C(CSCCO)Nc1ccc(C2CCCCC2)cc1,-3.2%
CCCCC(CC(O)COCCC)C(=O)NN (stereo not given),9.8%

# Compound activity (PubChem)

# Some of the compounds tested. The share of hits here may be higher or lower than overall.
